Assay outcomes as filed in PubChem BioAssay.
VDR inh – Inhibitors of the vitamin D receptor (VDR): qHTS | Vitamin D3 receptor (Homo sapiens), P11473 | VDR-SRC2-3 peptide fluorescence polarization, 2 h | Potency, µM, inactives show max response, negative = inhibition, actives largely listed as inhibitors | 400,000 tested, 0.93% active | AID 504847, 2011; active = well fitted inhibition curve with a large enough effect; inconclusive = small, poorly fitted or top-dose-only effect, or another doubt; inactive = no such curve, though single readings can be large or run the other way; note: series mostly up to about 120 µM
Target sequence (P11473 whole entry, looked up): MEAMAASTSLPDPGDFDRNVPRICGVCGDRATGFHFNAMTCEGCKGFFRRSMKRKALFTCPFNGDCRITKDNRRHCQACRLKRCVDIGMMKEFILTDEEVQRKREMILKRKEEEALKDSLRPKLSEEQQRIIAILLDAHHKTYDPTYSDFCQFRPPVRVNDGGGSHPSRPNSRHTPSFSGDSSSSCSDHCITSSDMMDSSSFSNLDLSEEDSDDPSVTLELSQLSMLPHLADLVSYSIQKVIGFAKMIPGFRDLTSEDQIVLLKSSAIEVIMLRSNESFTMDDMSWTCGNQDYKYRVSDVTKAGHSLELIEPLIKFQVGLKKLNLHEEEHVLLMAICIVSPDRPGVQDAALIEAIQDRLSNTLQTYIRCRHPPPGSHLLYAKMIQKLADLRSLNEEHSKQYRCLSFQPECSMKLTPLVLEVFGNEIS
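Inhibition of the VDR/SRC2-3 peptide interaction is quantified by fluorescence polarization. Compounds (23 nl, pintool) incubate with the reagents for 2 hours at ambient room temperature.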
* = called active by the depositor; ? = inconclusive; & = joins results of further samples; [ ] = dose if it differs, or a comment. % is set by controls: 0 for no effect and ±100 for the full control effect; potency is the fitted concentration of half-maximal effect. These rows are one share of the data; count on the stated rates, not on these rows.

Sample of the layout:
SMILES | VDR inh
COc1cc(OC)cc(C(=O)N[C@H](C(=O)OCC(=O)Nc2sccc2C#N)C(C)C)c1 | -7%
C=CCn1c(SCC(=O)Nc2ccc(C(=O)O)cc2)nc2sc(C)c(C)c2c1=O | -12%
CCn1c(SCC(=O)NCCc2ccccc2)nnc1C(C)C | 3%
CC(NC(=O)c1ccco1)C(=O)N1CCN(c2ccccc2)CC1 (configuration not stated) | -15%
COc1ccc(Br)c(C(=O)Nc2cc3c(cc2N2CCCCC2)n(C)c(=O)c(=O)n3C)c1 | 8%
COc1cscc1C(=O)O | -14%
Cc1ccc(-c2cc(C(=O)NCc3cnn(C)c3C)c3ccccc3n2)cc1C | -1%
Cn1c(CNc2ccc(O)cc2)nc2ccccc21 | 3%
CCN(CCCNC(=O)c1cc2cc3cc(OC)ccc3nc2s1)c1ccccc1 | -7%
CC1CC(=O)N(CC(=O)NCc2ccc3c(c2)OCO3)c2ccccc2S1 (configuration not stated) | -23%
COc1cc(NC(=O)c2cc(-c3cccc(OC)c3)n[nH]2)cc(OC)c1 | 3%
CCc1nn(CC(=O)NCC(C)c2ccccc2)c(=O)c2cc3occc3n12 (configuration not stated) | 3%
CC1=C(C#N)C(Nc2cc(C)ccn2)(C(F)(F)F)C(=O)N1 (configuration not stated) | -5%
O=C(CN1C(=O)CCc2cc(S(=O)(=O)N3CCCCC3)ccc21)NCc1ccc(Cl)cc1 | -1%
Cc1c(NC(=O)c2cccc(NC(=O)Cc3ccccc3F)c2)c(=O)n(-c2ccccc2)n1C | 3%
Cc1cc(C)cc(NC(=S)N2CCN(C(=O)c3ccco3)CC2)c1 | 7%
CCSc1nnc2c(n1)OC(c1ccc(OCC(=O)O)cc1)Nc1ccccc1-2 (configuration not stated) | 5%

The whole of this part, repeating the preview:
SMILES | VDR inh
COc1cc(OC)cc(C(=O)N[C@H](C(=O)OCC(=O)Nc2sccc2C#N)C(C)C)c1 | -7%
C=CCn1c(SCC(=O)Nc2ccc(C(=O)O)cc2)nc2sc(C)c(C)c2c1=O | -12%
CCn1c(SCC(=O)NCCc2ccccc2)nnc1C(C)C | 3%
CC(NC(=O)c1ccco1)C(=O)N1CCN(c2ccccc2)CC1 (configuration not stated) | -15%
COc1ccc(Br)c(C(=O)Nc2cc3c(cc2N2CCCCC2)n(C)c(=O)c(=O)n3C)c1 | 8%
COc1cscc1C(=O)O | -14%
Cc1ccc(-c2cc(C(=O)NCc3cnn(C)c3C)c3ccccc3n2)cc1C | -1%
Cn1c(CNc2ccc(O)cc2)nc2ccccc21 | 3%
CCN(CCCNC(=O)c1cc2cc3cc(OC)ccc3nc2s1)c1ccccc1 | -7%
CC1CC(=O)N(CC(=O)NCc2ccc3c(c2)OCO3)c2ccccc2S1 (configuration not stated) | -23%
COc1cc(NC(=O)c2cc(-c3cccc(OC)c3)n[nH]2)cc(OC)c1 | 3%
CCc1nn(CC(=O)NCC(C)c2ccccc2)c(=O)c2cc3occc3n12 (configuration not stated) | 3%
CC1=C(C#N)C(Nc2cc(C)ccn2)(C(F)(F)F)C(=O)N1 (configuration not stated) | -5%
O=C(CN1C(=O)CCc2cc(S(=O)(=O)N3CCCCC3)ccc21)NCc1ccc(Cl)cc1 | -1%
Cc1c(NC(=O)c2cccc(NC(=O)Cc3ccccc3F)c2)c(=O)n(-c2ccccc2)n1C | 3%
Cc1cc(C)cc(NC(=S)N2CCN(C(=O)c3ccco3)CC2)c1 | 7%
CCSc1nnc2c(n1)OC(c1ccc(OCC(=O)O)cc1)Nc1ccccc1-2 (configuration not stated) | 5%
CCOC(=O)CNc1c(-c2ccccc2)nc2ccc(Cl)cn12 | -18%
Cc1ccc2nc(SC(C)C(=O)NC3CCCc4ccccc43)[nH]c2c1 (configuration not stated) | -11%
COc1ccc(Cl)cc1NC(=O)c1ncn(-c2ccccc2)n1 | 10%
COc1ccc(NC(=O)C23CC4CC(C2)CC(n2cnc(Br)n2)(C4)C3)cc1OC | -5%
CCOCCCNC(=S)N(CCN(CC)CC)Cc1cc2cc3c(cc2[nH]c1=O)OCCO3 | -20%
CCCc1cc(=O)[nH]c(SCC(=O)NC2CCCCCCC2)n1 | -2%
CC(C)CN1C(=O)NC(NC(=O)c2cccs2)(C(F)(F)F)C1=O (configuration not stated) | -6%
O=Cc1ccc(O)c(O)c1 | 11%
O=C(NNC(=O)C1CCN(S(=O)(=O)c2cccc(Cl)c2)CC1)C1CC1 | -3%
C/C(=N\NC(=O)CC#N)c1cc2ccc(O)cc2oc1=O | -19%
Cn1c(=O)c2c(nc(SCC(=O)N3CCc4ccccc4C3)n2C)n(C)c1=O | 4%
CCOc1ccc(Cc2onc3c2C(=O)CCC3)cc1OCC | -3%
CC(CCc1ccccc1)NC(=O)c1ccc(F)cc1 (configuration not stated) | -12%
O=S(=O)(c1ccccc1F)N1CCN(Cc2cc3c(cc2Br)OCCO3)CC1 | -3%
Cc1cccc(Nc2nnc(SCc3cn4ccsc4n3)s2)c1 | 16%
CSc1ncc(CN2CCN(C3CCN(C(C)C)CC3)C(CCO)C2)cn1 (configuration not stated) | 5%
Cc1cc(Oc2nnnn2-c2ccccc2)ccc1Cl | 12%
N#CCC(CNc1ncc(C(F)(F)F)cc1Cl)OC(=O)c1cccc(C(F)(F)F)c1 (configuration not stated) | 6%
Cn1c(-c2ccsc2)c(-c2cccs2)c2cc(Br)ccc21 | 9%
Cc1ccc(S(=O)(=O)/C(C#N)=C/c2c(N3CCCCC3)nc3ccccn3c2=O)cc1 | -12%
COc1ccc(Cl)cc1C(=O)NNC(=S)NC(=O)c1cc(-c2ccc(Cl)cc2)nc2ccccc12 | 0%
Cc1cc(S(=O)(=O)Nc2nc(CN3CCOCC3)nc3sc4c(c23)CCC4)cc(C)c1C | -28%
Cc1ccc2c(c1)[C@H]1[C@H](CO2)[C@H](c2ccccc2)[C@]2(C)C(=O)Nc3cc(F)c(F)cc3C(=O)N12 | -21%
CCOc1nc(NCCN2CCOCC2)nc(Nc2ccc(C)cc2)n1 | -13%
O=C1C2CCCN2C(c2ccccc2)N1c1nccs1 (configuration not stated) | -13%
CC(C)CC1Nc2ncnc(N3CCN(c4ccccn4)CC3)c2N(Cc2ccc(Br)cc2)C1=O (configuration not stated) | -7%
OCCNCCOc1ccccc1F | 19%
O=C(Oc1ccc2[nH]cc(CCN3C(=O)c4ccccc4C3=O)c2c1)c1ccco1 | 1%
CC(=O)NS(=O)(=O)c1ccc(NC(=O)CC(C)c2ccccc2)cc1 (configuration not stated) | 14%
COc1ccc(NC(=O)CCc2ccccc2)cc1S(=O)(=O)N1CCOCC1 | 0%
Cc1ccc(NC(=O)Nc2nnc(N(C)Cc3ccccc3)s2)cc1 | 13%
O=C(c1ccc(F)cc1)c1cnc(Nc2ccccc2)s1 | 18%
O=C(NCCCN1CCCC1)c1ccc(CS(=O)(=O)c2ccc(Cl)cc2)o1 | -14%
COc1ccc(-c2[nH]ncc2CN2CCC(C(=O)c3ccc(F)cc3)CC2)cc1 | 0%
S=c1nc(Cc2ccc(Cl)cc2)[nH]c2ccccc12 | 1%
Cc1cc2c(cc1S(=O)(=O)N(C)Cc1ccccc1)n(C)c(=O)c(=O)n2C | 1%
N#C/C(=C(/O)c1cccc(F)c1)c1nc2ccccc2s1 | 4%
Cc1ccc(NC(=O)CNC(=O)c2ccccc2F)cc1Cl | -10%
COc1ccc(C)cc1N(CC(=O)NCCN1CCOCC1)S(=O)(=O)c1ccccc1 | -14%
O=C(Nc1ccc2nsnc2c1)NC1CCCCC1 | -11%
C[C@H](NC(=O)c1nc[nH]c1C(=O)NC1CCN(C(=O)OC(C)(C)C)CC1)C(=O)OCc1ccccc1 | -2%
COc1ccc(S(=O)(=O)N(Cc2cccnc2)Cc2cc3ccccc3[nH]c2=O)cc1 | -23%
O=c1n(Cc2ccccc2Cl)nc2n1-c1ccccc1SC2 | -6%

(further entries)
SMILES | VDR inh
CC1CCN(c2nc(Cl)nc(Nc3ccc([N+](=O)[O-])cc3)n2)CC1 | -20%
CCN1CCN(c2ncc3c(n2)CCN(Cc2ccc(Br)s2)C3)CC1 | 18%
Cn1ncc2c(NCc3cccc(Cl)c3)ncnc21 | 12%
Cc1ccc(-c2csc(N3CCC(NS(=O)(=O)c4ccc5c(c4)OCCO5)CC3)n2)cc1 | 3%
O=C(CN1C(=O)NC2(CCCCCC2)C1=O)N1CCC(Cc2ccccc2)CC1 | 5%
CCOc1cc(/C=N/NC(=O)C(=O)N/N=C/c2ccc(O)c(OCC)c2)ccc1O | -15%
Cc1cc([N+](=O)[O-])nn1CC(=O)Nc1cnc2ccccc2c1 | 5%
Cc1cc(C)c(S(=O)(=O)NCCc2sc3nc(-c4ccc(F)cc4)nn3c2C)c(C)c1 | 6%
CCCCCCOC(=O)CCc1c(C)nc(N)[nH]c1=O | -2%
C=CCOn1c(C)c(C(C)=O)c2c3no[n+]([O-])c3ccc21 | -4%
CC(=O)c1cc(CN2CCC(n3nccc3NC(=O)c3ccccc3C)CC2)cs1 | 10%
COc1ccccc1CNC(=O)COc1ccc(C)cc1 | -11%
CCOc1ccc(C(=O)NCC(=O)NCCCn2nc(C)cc2C)cc1OCC | 4%
O=C(NCc1ccco1)/C(=C/c1ccco1)NC(=O)c1ccc(Br)o1 | -8%
CCOC(=O)C1CCCN(C(=O)c2ccc3c(c2)NC(=O)C(N2CCOCC2)S3)C1 (configuration not stated) | 0%
O=C(c1ccc(Cl)cc1)N1C2C=CC(C2)C1(C(F)(F)F)C(F)(F)F (configuration not stated) | -6%
C=CCOC(=O)C1=C(C)NC(=O)NC1c1ccc(OCC)cc1 (configuration not stated) | -22%
Cc1ccc2nc(-c3ccccc3)nn2c1 | -5%
COc1ccc(Cl)cc1C(=O)NNC(=S)NC(=O)/C=C/c1ccco1 | -9%
COc1ccccc1C1=NC(c2ccc(C)cc2)N=C1C (configuration not stated) | ?
CC(C)(C)C(=O)Nc1ncccc1C(O)c1cccc(C(F)(F)F)c1 (configuration not stated) | 6%
COc1ccc(CNS(=O)(=O)c2cc3c4c(c2)CCN4C(=O)CC3)cc1 | -12%&7%
CN(C)c1ccc(-c2noc(C3CC(=O)N(c4ccc5c(c4)OCCO5)C3)n2)cc1 (configuration not stated) | 6%
O=C(C[n+]1cc(Br)cc2ccccc21)c1ccc(F)cc1 | -2%
CCNC(=S)N1CCc2cc(OC)c(OC)cc2C1COc1ccccc1OC (configuration not stated) | -14%
C=CCNC(=O)c1c(CSc2ccccc2)noc1C(=O)NCc1ccccc1 | 3%
COc1cc2c3c(c1OC)-c1cc4c(cc1CC3(C#N)N(C(=O)c1ccccc1)CC2)OCO4 (configuration not stated) | 3%
CN(C)c1ccc(CN(C(=O)c2ccccc2Br)C2CCS(=O)(=O)C2)cc1 (configuration not stated) | -11%
CCCCN(Cc1cc2ccccc2[nH]c1=O)S(C)(=O)=O | -7%
Cc1cc(NC(=O)C2CC2)ncc1NC(=O)C12CC3CC(CC(C3)C1)C2 | -1%
c1cncc(-c2nc3ccccc3[nH]2)c1 | -8%
Cc1ccc(S(=O)(=O)N2CCC3(CC2)OCCN3S(=O)(=O)c2c(C)cc(C)cc2C)cc1 | -1%
N=c1n(CCO)c2ccccc2n1Cc1ccccc1Cl | 0%
CCOC(=O)CSc1nnc(CSc2nc3sc4c(c3c(=O)[nH]2)CCC4)n1-c1ccccc1 | 10%
CC1CCCN(c2nc3c(c(=O)n(C)c(=O)n3C)n2CCSc2nc3ccccc3s2)C1 (configuration not stated) | 31%[activator]
Cc1nn(C(=O)c2cccc(F)c2)c(C)c1S(=O)(=O)N1CCCCCC1 | -1%
O=C(CSc1nnc2ccccn12)NNC(=O)c1cccc(Cl)c1 | -12%
CCOc1ccccc1Nc1nc2ccccc2n1C(C)C | -5%
Cc1ccc(COc2cccc(/C=N/NC(=O)c3nnn(-c4nonc4N)c3C)c2)cc1 | -17%
CSc1nsc(SCC(=O)Nc2ccccc2C(N)=O)n1 | -10%
CC(=O)NCC(=O)N(c1c(C)n(C)n(-c2ccccc2)c1=O)C1(C(=O)NC2CCCC2)CCCCC1 | -6%
CCOC(=O)C1(Cc2ccccc2)CCN(Cc2ccon2)CC1 | 1%
O=C(O)CCCNC(=O)CC1S/C(=N/N=C/c2ccccc2O)NC1=O (configuration not stated) | 9%
O=C(N/N=C/c1cccc([N+](=O)[O-])c1)c1ccc(COc2ccccc2-c2ccccc2)cc1 | -15%
O=C(CSc1ccc(Cl)cc1)N1CCN(c2ncc(C(F)(F)F)cc2Cl)CC1 | -21%
Clc1ccccc1CN1CCN(c2ncccn2)CC1 | -14%
Cc1cc(Br)ccc1NC(=O)CNC(=O)Cn1ncc(Cl)c(Cl)c1=O | -10%
CN(c1ccc(OCC(=O)OCC(=O)NC2CCCC2)cc1)S(=O)(=O)c1ccc2ccccc2c1 | 24%
CC(C)CNC(=O)COC(=O)c1cc(Cl)cc(Cl)c1N | 7%
Cc1cn(C)c(CC(=O)NCc2ccc(F)cc2)c1C(=O)O | 5%
COc1ccc(N2CCN(C(=O)c3ccccc3N(C)S(=O)(=O)c3ccc(C)cc3)CC2)cc1 | -8%
COc1ccc(CC(=O)NNC(=O)c2ccncc2)cc1 | -6%
CC(C)C[C@@H](C(=O)N[C@@H](C(=O)O)c1ccccc1)N1C(=O)N2CCc3c([nH]c4ccccc34)[C@@]2(C)C1=O | -23%
N[C@@H](CCCP(=O)(O)O)C(=O)O | 2%
Cn1c(-c2ccc(Cl)cc2)ccc(C#N)c1=O | 4%
Cc1ccc(NC(=O)N(Cc2cccnc2)Cc2ccco2)cc1C | -9%
Cc1ccc(C(C(=O)NC2CCCC2)N(Cc2cccnc2)C(=O)c2snc(C(N)=O)c2N)o1 (configuration not stated) | -3%
Cc1cc(N2CCN(S(=O)(=O)c3ccc(C)c(C)c3)CC2)c2ccccc2n1 | -11%
CCOc1ccccc1NC(=S)NC(=O)CCCOc1ccc(Cl)cc1Cl | 14%
COC(=O)CSc1nnc(-c2ccc(S(=O)(=O)N3CCC(C)CC3)cc2)o1 | ?
